From PubChem BioAssay
GIV Gai3 FP – inhibitors of GIV peptide binding to Galpha-i3, primary screen, biochemical, fluorescence polarization, FITC-GIV GBA peptide, rat Galphai3; 0.42% of 210,000 active; 90 min; active compounds read low; scaled: aluminum fluoride 0%, vehicle 100%; percent of control (FP), % (concentration not given with the values); Guanine nucleotide-binding protein G(i) subunit alpha-3 (Rattus norvegicus), P08753;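 active = replicate mean at 85% of control or lower, very high polarization wells dropped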;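 also: wells of about 15 µL received 100 nL stock; the first replicate is given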
Target sequence (P08753 whole entry, looked up): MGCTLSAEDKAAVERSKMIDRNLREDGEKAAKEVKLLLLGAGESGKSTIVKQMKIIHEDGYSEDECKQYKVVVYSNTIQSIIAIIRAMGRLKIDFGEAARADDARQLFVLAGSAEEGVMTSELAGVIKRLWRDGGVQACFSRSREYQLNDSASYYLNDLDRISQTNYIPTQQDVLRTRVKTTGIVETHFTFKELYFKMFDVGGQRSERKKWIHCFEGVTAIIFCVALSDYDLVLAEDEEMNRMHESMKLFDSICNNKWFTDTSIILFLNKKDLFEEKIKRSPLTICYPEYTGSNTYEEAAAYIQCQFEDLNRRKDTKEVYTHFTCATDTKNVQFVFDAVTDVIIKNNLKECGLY
HCMV UL50-53 inh – inhibitors of HCMV UL50-UL53 interaction, biochemical, HTRF | HCMV UL50-UL53 nuclear egress complex (human cytomegalovirus) | normalized percent inhibition | inhibition, % (no concentration beside the values) | 0.15% of 190,000 active | AID 1918969, 2023;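 active = both replicates at 50% or more, plus weaker picks with an unusually low signal ratio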;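 also: stock transfer was 100 nL into about 20 µL; 0% = negative control wells and 100% = wells with untagged competitor protein; inactives centre near -12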
* = called active by the depositor; / = no result given; & = joins results of further samples.

Every second line gives: GIV Gai3 FP, HCMV UL50-53 inh
COc1ccc(OC)c(NC(=O)c2cccn(Cc3cccc(F)c3)c2=O)c1
    109, /
CCOC(=O)C1(C#N)C(c2cccc([N+](=O)[O-])c2)C(C(N)=O)N2C=C(C(N)=O)C=CC21 (stereo not given)
    112, /
Clc1ccc(C(Cn2ccnc2)OCc2ccc(Sc3ccccc3)cc2)c(Cl)c1 (stereo not given)
    /, -14
C[C@@H]1NCCc2cc(O)c(O)cc21
    /, -27
C[C@H](N)Cc1cnc[nH]1
    /, -5
COc1ccc2c(c1)/C(=C/c1cnc[nH]1)C(=O)N2
    /, -27
CN(C(=O)Cc1ccccc1)C(CN1CCCC1)c1ccccc1 (stereo not given)
    /, -9
CCCn1c(C)c(C(=O)c2cccc3ccccc23)c2ccccc21
    /, -23&-23
CCCCC/C=C\C/C=C\C/C=C\C/C=C\CCCC(=O)N[C@H](C)CO
    /, -15&-15&2
CN1CC[C@@]2(C)c3cc(O)ccc3N(C)[C@H]12
    /, -14
Cc1ccc(NC(=O)c2cc(C)n(C(C)(C)C)n2)cc1
    /, -12
C[C@@]1(CO)[C@H](O)CC[C@@]2(C)[C@H]1CC[C@H]1C[C@@H]3C[C@@]12CC[C@]3(O)CO
    /, -10
C[C@@H]([C@H](O)c1ccccc1)N(C)C
    /, -64
COC(=O)c1cccc(N2Cc3ccccc3C2=N)c1
    /, 1
O=C(Nc1ccc(Br)cc1C(=O)c1ccccc1)c1ccco1
    /, -16
C=CCN1CC[C@]23c4c5ccc(O)c4O[C@H]2C(=O)CC[C@@]3(O)C1C5
    /, -8
CNc1ccc2oc(C[C@@H]3OC4(CC[C@@H]3C)O[C@H](C(C)C(=O)c3ccc[nH]3)[C@H](C)C[C@H]4C)nc2c1C(=O)O (stereo not given in full)
    /, 0
CC[C@H]1C2C[C@H]3[C@@H]4N(C)c5ccccc5C45C[C@H](C2[C@H]5O)N3[C@@H]1O (stereo not given in full)
    /, -26
NC1=NC(=O)N2CC12 (stereo not given)
    /, -36
C/C=C1/C[N+]2(C)CCC34C(=C(C=O)[C@H]1C[C@@H]32)Nc1ccccc14 (stereo not given in full)
    /, -15
CCCCCCC(=O)O[C@H]1CC[C@H]2[C@@H]3C[C@H](O)C4=CC(=O)CC[C@]4(C)[C@H]3CC[C@]12C
    /, -34&-34
CC(=O)[C@H]1CC[C@H]2[C@@H]3CCC4C[C@](C)(O)CC[C@]4(C)[C@H]3CC[C@]12C (stereo not given in full)
    /, -3
CCCCC/C=C\C/C=C\C/C=C\C/C=C\CCCCCC(=O)NCCO
    /, -11&-11&-2
Cn1c2cccc(=O)c-2nc2ccccc21
    /, -77&-77
C=CCN1C[C@H](C)N([C@H](c2ccc(C(=O)N(CC)CC)cc2)c2cccc(OC)c2)C[C@H]1C
    /, -8
CN(C)C1C(=O)C(C(N)=O)=C(O)[C@@]2(O)C(=O)C3=C(O)c4c(O)cccc4[C@@](C)(O)[C@H]3C(O)[C@@H]12 (stereo not given in full)
    /, -68
Fc1ccc(C(OCCN2CCN(C/C=C/c3ccccc3)CC2)c2ccc(F)cc2)cc1
    /, -11
CN(C)c1ccc(/C=C2\CCCN=C2c2cccnc2)cc1
    /, -146
NC=Nc1ccc2[nH]c3c(c2c1)C[C@@]1(O)C2Cc4ccc(O)c5c4[C@@]1(CCN2CC1CC1)[C@H]3O5
    /, -8
O=C1/C(=C/c2ccccc2)C[C@@]2(O)C3Cc4ccc(O)c5c4[C@@]2(CCN3CC2CC2)[C@H]1O5
    /, -7

A portion from further up, for reference:
Every second line gives: GIV Gai3 FP, HCMV UL50-53 inh
CCCCCCC(=O)O[C@H]1CC[C@H]2[C@@H]3C[C@H](O)C4=CC(=O)CC[C@]4(C)[C@H]3CC[C@]12C
    /, -34&-34
CC(=O)[C@H]1CC[C@H]2[C@@H]3CCC4C[C@](C)(O)CC[C@]4(C)[C@H]3CC[C@]12C (stereo not given in full)
    /, -3
CCCCC/C=C\C/C=C\C/C=C\C/C=C\CCCCCC(=O)NCCO
    /, -11&-11&-2

More structures:
Every second line gives: GIV Gai3 FP, HCMV UL50-53 inh
CC(C)[C@]1(O)[C@@H](OC(=O)c2ccc[nH]2)[C@@]2(O)[C@@]3(C)C[C@]4(O)O[C@@]5([C@H](O)[C@@H](C)CC[C@]35O)[C@@]2(O)C41C
    /, -17
O=C(O)c1sc2cc(Cl)ccc2c1Cl
    /, -23
N/C(=N\[N+](=O)[O-])N/N=C\c1ccc(-c2cccc([N+](=O)[O-])c2)o1
    /, -17
O=c1[nH]c(=O)n(Cl)c(=O)n1Cl
    /, -45
c1ccc(CN2CCc3nc4ccccc4cc3C2)cc1
    /, -4
COC1CCC(OC2C[C@H]([C@]3(C)CC[C@]4(CC(O)C(C)[C@@H](C(C)C=C(C)C(=O)C(C)CC(C)C(=O)O)O4)O3)O[C@]3(O[C@@H]([C@H]4O[C@@](O)(CO)C(C)CC4C)CC3C)C2C)OC1C (stereo not given in full)
    /, 4
O=C(Oc1ccc([N+](=O)[O-])cc1)N1CCC(C(O)(c2ccc3c(c2)OCO3)c2ccc3c(c2)OCO3)CC1
    /, -20&-20&-20
COc1ccc2c(c1)c(CCN1CCOCC1)c(C)n2C(=O)c1cccc(Cl)c1Cl
    /, 1
c1ccc(CCCCN2CCC(c3ccccc3)CC2)cc1
    /, -5
C=C(C)[C@@H]1CCC(C)=C[C@H]1c1c(O)cc(O)cc1CCCCC
    /, 6&6

2 of these compounds, reformatted:
Compound,GIV Gai3 FP,HCMV UL50-53 inh
c1ccc(CN2CCc3nc4ccccc4cc3C2)cc1,/,-4
COC1CCC(OC2C[C@H]([C@]3(C)CC[C@]4(CC(O)C(C)[C@@H](C(C)C=C(C)C(=O)C(C)CC(C)C(=O)O)O4)O3)O[C@]3(O[C@@H]([C@H]4O[C@@](O)(CO)C(C)CC4C)CC3C)C2C)OC1C (stereo not given in full),/,4

New compounds follow.
Every second line gives: GIV Gai3 FP, HCMV UL50-53 inh
COc1ccc(/C=C/C(=O)CC(=O)/C=C/c2ccc(OC)c(OC)c2)cc1OC
    /, -28&-28
CN(C)C(=O)Oc1ccc(Cl)c2cccnc12
    /, -37
CCCCCCC(=O)O[C@H]1CC[C@H]2[C@@H]3C=CC4=CC(=O)CC[C@]4(C)[C@H]3CC[C@]12C
    /, -32&-32
Cc1ncc(CN2CC=C(c3ccccc3)CC2)c(N)n1
    /, -24
O=C1OCCN1N=Cc1ccc([N+](=O)[O-])o1
    /, -91
CN1[C@@H]2CC[C@H]1CC(OC(=O)N1Cc3ccccc3NC1=O)C2 (stereo not given in full)
    /, 3
O=S(=O)(F)Cc1ccccc1
    /, 13
COc1ccc(S(=O)(=O)N(CCO)c2ccccc2CN(C)C/C=C/c2ccc(Cl)cc2)cc1
    /, -32&-11&-11
C[C@]12CCC(=O)C=C1C=C[C@@H]1[C@@H]2CC[C@@]2(C)[C@H]1CC[C@@]2(O)CCC(=O)O
    /, -21
COc1ccc(N(C(=O)Oc2c(C)cccc2C)c2ccnc(Nc3ccc(N4CCN(C)CC4)cc3)n2)c(OC)c1
    /, 29
O=C1CN=C(c2cccc(Br)c2)c2oc3ccccc3c2N1
    /, 4
C[C@]12CCC3[C@@H](CC[C@@]45O[C@@H]4C(O)=C(C#N)C[C@]35C)C1CC[C@@H]2O (stereo not given in full)
    /, -60
CCCCCCC(C)(C)c1cc(OC)c2c(c1)OC(C)(C)[C@@H]1CC=C(C)C[C@@H]21
    /, -20&-20
O=C(NC(COc1ccc2[nH]c(=O)[nH]c2c1)c1ccccc1)c1cccn(Cc2ccc(F)c(F)c2)c1=O (stereo not given)
    /, 13&12&6&-1
CN1CCC(N(C)CCC2CCOCC2)CC1
    /, -7
COc1cc(OC)c(OC)cc1C=O
    /, -28
C[C@H]1CC[C@]2(NC1)O[C@H]1C[C@H]3[C@@H]4CC[C@H]5C[C@@H](O)CC[C@]5(C)[C@H]4CC[C@]3(C)[C@H]1[C@@H]2C
    /, -25
c1cc2ccc(N3CCNCC3)cc2cn1
    /, -35&-35
O=C(O)c1cc2ccccc2oc1=O
    /, -51
CCN1C[C@@]2(COC)C3[C@@H](OC)[C@H]4[C@H]1C3([C@@H]1C[C@@]3(O)[C@H](OC(=O)c5ccccc5)[C@@H]1[C@]4(OC(C)=O)[C@@H](O)[C@@H]3OC)[C@H](OC)C[C@H]2O
    /, -1
CC(C)CC(N)C1(c2ccc(Cl)cc2)CCC1 (stereo not given)
    /, 2
CNCC(=O)c1ccc(O)c(O)c1
    /, -18&-67
COc1ccc2cc(C(C#N)OC(=O)OCC3OC3c3ccccc3)ccc2c1 (stereo not given)
    /, -30&-30
C[C@@H]1CC[C@@]2(NC1)O[C@H]1C[C@H]3[C@@H]4CC=C5C[C@@H](O)CC[C@]5(C)[C@H]4CC[C@]3(C)[C@H]1[C@@H]2C
    /, -19
CCOC(=O)C1CCN(Cc2ccc(Cl)nc2)CC1
    /, -10
N#CC(c1c[nH]c2ccccc12)N1CCOCC1 (stereo not given)
    /, -4
Cc1nnc2ccc(-c3cccc(C(F)(F)F)c3)nn12
    /, -57
COP(=O)(OC)C(O)C(Cl)(Cl)Cl (stereo not given)
    /, -10
CC(C)CC(NP(=O)(O)OC1OC(C)C(O)C(O)C1O)C(=O)NC(Cc1c[nH]c2ccccc12)C(=O)O (stereo not given)
    /, -3
c1ccc(CC(c2ccccc2)N2CCCCC2)cc1 (stereo not given)
    /, -7
c1cc(Cc2cnc[nH]2)ccn1
    /, -14
CC(=O)Nc1nc(-c2ccccc2)[n+](-c2ccccc2)s1
    /, -14
CCCCC/C=C\C/C=C\CCCCCCCC(=O)NCCO
    /, -22&-22&-11
CCCCCC(=O)N[C@H]1CCOC1=O
    /, -29&-29
CCCN[C@@H]1CCc2c(OC)cccc2[C@@H]1C
    /, 1
COc1cc2c(cc1OC)[C@@]13CCN4CC5=CCOC6CC(=O)N2C1C6C5CC43 (stereo not given in full)
    /, 15
CC(=O)N(C)c1cccc(-c2ccnc3c(C(=O)c4cccs4)cnn23)c1
    /, -35
CCCCC/C=C\C/C=C\C/C=C\C/C=C\CCC(C)C(=O)NCCF (stereo not given)
    /, -16&-16
Nc1ccc(-c2ccc(N)cc2)cc1
    /, -3
CC(=O)NC1CCSC1=O (stereo not given)
    /, 3

Reprinted at random: three compounds from above
Every second line gives: GIV Gai3 FP, HCMV UL50-53 inh
COc1cc2c(cc1OC)[C@@]13CCN4CC5=CCOC6CC(=O)N2C1C6C5CC43 (stereo not given in full)
    /, 15
CCCN[C@@H]1CCc2c(OC)cccc2[C@@H]1C
    /, 1
CC(=O)N(C)c1cccc(-c2ccnc3c(C(=O)c4cccs4)cnn23)c1
    /, -35

Additional results:
Every second line gives: GIV Gai3 FP, HCMV UL50-53 inh
COP(=S)(OC)Oc1ccc(SC)c(C)c1
    /, -67
Clc1ccc(C(Cn2ccnc2)OCc2c(Cl)cccc2Cl)c(Cl)c1 (stereo not given)
    /, -2&-21
Cc1ccc2c(c1)C(c1ccccc1)=NCC(=O)N2C
    /, 6
Cc1nccn1Cc1ccc(Cl)nc1
    /, -7
NC(CC(=O)N1CCn2c(nnc2C(F)(F)F)C1)Cc1cc(F)c(F)cc1F (stereo not given)
    /, 16
C[N+]1=Cc2cc3c(cc2CC1)OCO3
    /, -85
C=C1[C@@H](C)[C@H]2[C@H](Cc3ccccc3)NC(=O)C23[C@H](OC(C)=O)/C=C/[C@](C)(O)C(=O)[C@@H](C)C/C=C/[C@H]3[C@@H]1O (stereo not given in full)
    /, 10
CCCCC/C=C\C/C=C\C/C=C\C/C=C\CCCC(N)=O
    /, -24&-24&-6
CCc1c(C(=O)C(N)=O)c2c(OCC(=O)O)cccc2n1Cc1ccccc1
    /, -15
Cc1nnc2n1-c1sc(CCC(=O)N3CCOCC3)cc1C(c1ccccc1Cl)=NC2
    /, -2
CN1[C@@H]2CC[C@H]1CC(OC1c3ccccc3CCc3ccccc31)C2 (stereo not given in full)
    /, -35
NCCC(O)C(=O)N[C@@H]1C[C@H](N)[C@@H](OC2O[C@H](CN)[C@@H](O)[C@H](O)[C@H]2N)[C@H](OC2O[C@H](CO)C(O)[C@H]2O)[C@H]1O (stereo not given in full)
    /, 10
Cc1sc2c(c1C)C(c1ccc(Cl)cc1)=NC(CC(=O)Nc1ccc(O)cc1)c1nnc(C)n1-2 (stereo not given)
    /, 4
N#CC(C#N)=Cc1ccc(O)cc1
    /, -13
O=C1CCC[C@@H]2[C@@H]3CCCN4CCC[C@H](CN12)[C@@H]34
    /, 6
CC(O)CN1CCN(CC(=O)[O-])CCN(CC(=O)[O-])CCN(CC(=O)[O-])CC1.[Gd+3] (stereo not given)
    /, -71
Cc1cc(C)cc(C(=O)OC2CC3CCC(C2)N3C)c1 (stereo not given)
    /, -2
CN1CCN(C(=O)O[C@H]2c3nccnc3C(=O)N2c2ccc(Cl)cn2)CC1
    /, -82&-103
CC1OC(O[C@H]2C[C@@H](O)[C@]3(CO)[C@H]4[C@H](O)C[C@]5(C)[C@@H](C6=CC(=O)OC6)CC[C@]5(O)[C@@H]4CC[C@]3(O)C2)C(O)C(O)C1O (stereo not given in full)
    /, -2
COC1CCC2NC(C(=O)c3ccccc3)CC2C1 (stereo not given)
    /, 6
NC1(c2ccccc2Cl)CCCCC1=O (stereo not given)
    /, 1
CC(C)NCC(O)c1ccccc1Cl (stereo not given)
    /, -1
COC1=CC(=O)O[C@@H](/C=C/c2ccccc2)C1
    /, -28
CCN1C[C@]2(C)CC[C@H](O)[C@]34C1[C@H](C[C@H]23)[C@@]1(O)C[C@H](OC)[C@H]2C[C@@H]4[C@@H]1C2O (stereo not given in full)
    /, -26
CCCN(CCCN)N(O)N=O
    /, -7&-7

The list is partial. The share of hits here may be higher or lower than overall.
